Ba CapD inh = Bacillus anthracis CapD inhibitors, primary screen, biochemical, fluorescence intensity. purified CapD enzyme, fluorescence intensity read-out; stronger effect = lower value; some hits fall short of the stated cut. z-score (concentration not given with the values). actives 0.23% (n = 140,000);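 active = z-score under -4 in either of two replicates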;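 also: stock transfer was 100 nL into about 40 µL; score is relative to mean and spread of the plate; one replicate is shown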
AID504770 = growth inhibition of E. coli YBA685, primary screen, V. cholerae RctB inhibitors. z-score (test concentration not listed). E. coli YBA685 rctB-dependent plasmid, OD600 growth, 3 h; stronger effect = lower value. actives 0.27% (n = 130,000);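 active = z-score under -2 on both plates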;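 also: wells of about 30 µL received 100 nL stock; score is relative to mean and SD of the test wells; the first replicate is given; strong numbers were not always called active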
* = called active by the depositor; . = no result given.

Screens in order: AID504770, Ba CapD inh
CC1=C(C)CC(C(=O)NCc2csc3ccccc23)C(C(=O)O)C1 (centres undefined)
    ., -0.36
CCc1ccccc1NC(=O)NCc1c(-n2cccc2)sc2c1CCCC2
    -0.6, -0.15
NC(=O)c1cc(-c2csc(N3CCCC3)n2)ccc1O
    0.35, .
Nc1nc(NC(=S)Nc2ccccc2)cc(=O)[nH]1
    -0.7, .
CC(Nc1nc(F)cc(=O)[nH]1)C(=O)O (centres undefined)
    -0.25, 0.42
O=c1[nH]c(=O)n([C@@H]2O[C@H](CO)[C@@H](O)[C@H]2O)cc1Br
    0.65, 0.1
COc1ccc(COC(=O)C2=C(C)NC3=C(C(=O)CCC3)C2c2ccc(OC)c(OC)c2OC)cc1 (centres undefined)
    ., 31
Cc1cc(C(F)(F)F)c(C#N)c(SCC(=O)Nc2cccc(C(F)(F)F)c2)n1
    ., 0.59
O=C(C1CCCN(S(=O)(=O)Cc2ccccc2)C1)N1CCc2ccccc21 (centres undefined)
    0.55, .
CCCN1CNc2nc3ccccc3n2C1
    -0.75, -0.17
O=C1NC(CCc2ccccc2)C(=O)N1CCOc1ccccc1 (centres undefined)
    1.6, .
CCN(CC)S(=O)(=O)c1ccc2[nH]c3c(c2c1)CCCC3
    -0.45, 0.18
COc1ccc(OC)c(CC(=O)Nc2c(N)nc(N)nc2N)c1
    0.25, .
O=C1CSC(c2ccccc2)N1Nc1nc(N2CCOCC2)nc(N2CCOCC2)n1 (centres undefined)
    -0.15, .
Cc1cccc(NC(=O)CSc2nnc(CCC(=O)O)c(=O)n2N)c1
    0.8, -0.095
O=C(Nc1ccc(N2CCN(c3ccc(C(F)(F)F)cn3)CC2)nc1)Nc1ccccc1OC(F)(F)F
    0.25, 4.6
N#Cc1ccccc1NC(=O)COC(=O)c1oc2ccccc2c1CSC1CCCCC1
    -0.3, .
CCOc1ccc(NC(=O)c2cn3c(n2)sc2ccccc23)cc1
    ., 0.79
COc1ccc2ccccc2c1CN1CCN(S(=O)(=O)c2c(C)c(C)cc(C)c2C)CC1
    ., 0.54
O=C(NNC(=O)c1cc(-c2ccccc2)nc2ccccc12)C(=O)Nc1cccc(C(F)(F)F)c1
    ., 1.2
C=CCNc1ccc2c3c1cccc3c(=O)n1c3ccccc3nc21
    ., -0.95
O=c1c2ccccc2[nH]c(=S)n1-c1cccc(S(=O)(=O)N2CCCC2)c1
    -0.35, .
O=C(NCCc1ccccc1)c1ccoc1COc1ccccc1
    0.65, -0.11
O=C(CSc1ccccn1)Nc1ccc(Cl)c(Cl)c1
    ., 0.61
COc1ccccc1C(=O)NC1CCN(c2ncccn2)CC1
    -1.1, 14
CCOC(=O)Nc1nnc(Cc2cccc(Br)c2)s1
    -0.05, 0.54
NCC(c1ccccc1)c1ccccc1
    -0.45, .
COc1ccc(N=C(Nc2ccc(OC)cc2)SC)cc1
    0.9, -0.05
CN(C)c1ccc(-c2nc3cc(NC(=O)c4ccc([N+](=O)[O-])cc4[N+](=O)[O-])ccc3o2)cc1
    ., 4.8
CCN(Cc1ccncc1)C(=O)c1ccc(I)cc1
    0.2, 0.03
CC1=C(C(=O)OCCc2ccccc2)C(c2coc3ccccc3c2=O)C2=C(CC(C)(C)CC2=O)N1 (centres undefined)
    ., -0.32
O=C(Nc1ccc2c(c1)CCC2)c1ccc(Cl)nc1
    1.4, .
O=C(CSc1nc2ccccc2c(=O)n1CC1CCCO1)Nc1cccc(C(F)(F)F)c1 (centres undefined)
    1, -0.32
CCN(CC)C(=O)C(C(F)(F)F)C(F)(F)F
    -0.3, .
COc1ccccc1NC(=S)NNC(=O)CC#N
    ., -0.32
O=C(Nc1c2c(nn1-c1ccc(Oc3ccccc3)cc1)CSC2)c1ccco1
    1.9, -1.7
CC(C)N(Cc1ccccc1)C(=O)C1=CCN(S(=O)(=O)c2ccc(F)cc2)CC1
    0.5, 0.045
CC1(c2ccccc2)COC2(OC1)C(=O)N(CN1CCOCC1)c1ccccc12 (centres undefined)
    ., 0.28
COc1ccc2c(c1)CCc1c(C(=O)N3C(C)CCCC3C)noc1-2 (centres undefined)
    -3*, 0.53
C=CCNC(=S)Nc1ccc(-c2nnc3n2CCCCC3)cc1
    ., -0.04
Cc1onc(-c2c(Cl)cccc2Cl)c1C(N)=O
    ., 0.32
CCC(c1nnc(SCc2ccc(C(=O)OC)o2)n1Cc1ccccc1)N(C)C (centres undefined)
    0.25, .
O=C1NC(=S)N(c2ccccc2)C(=O)/C1=C/c1cc(Br)c(N2CCOCC2)o1
    ., 0.035
Cc1cc(C)nc(SCCS(=O)Cc2ccc(Cl)cc2)n1 (centres undefined)
    0.35, -0.1
O=C(CSc1nnc2sc3ccccc3n12)NCc1ccccc1
    -0.6, 0.3
Cc1cc2nc(Cc3ccc(F)c(F)c3)c(=O)n(C)c2cc1C
    ., 1.4
CCOC(=O)c1ccc(N=Cc2cccs2)cc1
    0.25, -0.055
O=S(=O)(Cc1ccc(Cl)cc1)c1ncc(CO)n1Cc1ccccc1
    ., 0.14
CCOc1cc2c(cc1/C=C1\NC(=S)NC1=O)OCO2
    1.5, -0.02
CN(C)CCNc1c2c(c(C#N)c3nc4ccccc4n13)CCC2
    ., 0.4
O=C(NC(Cc1ccccc1)C(=O)O)OCc1ccccc1 (centres undefined)
    -0.15, 0.18
O=C1CC(C(=O)NCc2ccco2)C2(CCCCC2)O1 (centres undefined)
    -0.65, .
CC(=O)Nc1ccc(N=Cc2c[nH]c3ccccc23)cc1
    -0.1, 0.23
Nc1ccc(S(=O)(=O)NCCC2=CCCCC2)cc1
    0.85, 0.025
CC(=O)N1CCc2cccc(NC(=O)CCC(=O)O)c21
    ., 0.38
Fc1ccc(-c2nc(-c3ccccc3)c(-c3ccc(Sc4ccccc4)cc3)[nH]2)cc1
    ., -0.46
Cc1cc2c3c(c1)C1(C(=O)N3C(C)(C)CC2C)C(C#N)=C(N)Oc2cc(O)ccc21 (centres undefined)
    0.2, 0.21
CC(OC(=O)c1cccc(S(=O)(=O)NCc2ccccc2)c1)C(=O)N1CCN(C(=O)c2ccco2)CC1 (centres undefined)
    -0.15, .
COc1ccc(/C=C2\CCOC2=O)cc1
    -0.7, .
Cc1cccc(CS(=O)(=O)Cc2ccc(C(=O)NCCCN3CCOCC3)o2)c1
    0, -0.35

(next part)
Screens in order: AID504770, Ba CapD inh
C[C@H](NC(=O)c1cccc(C(F)(F)F)c1)c1nc2ccccc2[nH]1
    -0.2, .
CN1CCN(CC(O)COCc2ccccc2)CC1 (centres undefined)
    0.8, .
COC(=O)c1ccc(NC(=O)CNC(C)(C)CO)cc1
    -0.6, .
CC(C)c1nnc(-c2cc3sccc3s2)o1
    -1.1, 9.1
COc1ccccc1Cn1c(=O)c2cccnc2n(CC(=O)NCc2ccc(C)cc2)c1=O
    1.4, 3.6
Cc1nc(-c2cc(C#N)c(SCCNC(=O)c3ccc(Cl)cc3Cl)nc2C)cs1
    2, 0.68
CC1CCN(c2nc(-c3ccc(C(C)C)cc3)c(C#N)c(=O)[nH]2)CC1
    0.2, 0.2
CCCn1c(=NC(=O)CS(=O)(=O)c2ccccc2)sc2cc(S(C)(=O)=O)ccc21
    0.85, .
O=C(O)c1ccnc(-c2cc(C(=O)O)ccn2)c1
    -0.45, -0.62
CC1CCN(C(=O)c2cc3c(=O)[nH]c4ccccc4c3s2)CC1
    0.6, 7.1
Cc1ccc(-c2n[nH]c(=O)c3ccccc23)cc1S(=O)(=O)NC(C)(C)C
    ., -0.53
Cc1ccc(SC(C)C(=O)O/N=C(\N)c2ccccn2)cc1 (centres undefined)
    -1.3, -0.49
O=C(NCCO)c1ccc2c(c1)OCO2
    -0.45, .
O=C(Cn1c2ccccc2c(=O)c2ccccc21)Nc1ccc(I)cc1
    ., 4.8
N#C/C(=C(/O)CSc1ncnc2sc3c(c12)CCC3)c1nc2ccccc2[nH]1
    -0.2, .
CCOC(=O)c1cnc2c(-c3ccccc3)c(C(F)(F)F)nn2c1C
    0.45, .
Cc1cc2cc(CNC(=O)c3ccc(S(=O)(=O)N(C)C)cc3)ccc2[nH]1
    0.75, -0.47
c1ccc2oc(-c3ccn[nH]3)cc2c1
    -0.5, 1.3
COc1cc(OC)c(C2C(C#N)=C(N)Oc3n[nH]c(-c4ccc5c(c4)OCO5)c32)cc1OC (centres undefined)
    ., 0.02
O=C(Cc1ccsc1)Nc1ccc(-n2cnnn2)cc1
    -0.65, .
NC(=O)c1ccccc1OCC(=O)N1CCCc2ccccc21
    0.6, .
CC(=O)Nc1ccc2c(c1)S(=O)(=O)c1cc(NC(C)=O)ccc1-2
    0.05, .
NNC(=O)CC1NCCN(Cc2ccccc2)C1=O (centres undefined)
    ., -0.32
O=C(O)C1C2C=CC3(O2)C1C(=O)N1c2ccccc2C2OCCC2C13 (centres undefined)
    -0.4, -0.12
O=C(NCc1cccnc1)c1cc2cccc3c2n(c1=O)CC3
    ., 22
COc1ccc(/C=c2\sc3nc4cc(Br)cnc4n3c2=O)cc1
    2.2, -0.3
CCCCc1cc(=O)oc2c(C)c(OCC(=O)N3CCCC3)ccc12
    0.3, 18
CCOc1ccc(NC2=NCCC(=O)N2Cc2cccs2)cc1
    0.75, .
COc1cc(N=c2scc(-c3ccc(S(=O)(=O)N4CCCC4)cc3)n2C)c(OC)cc1Cl
    1.5, 0.2
COc1ccc(C(Nc2ccccn2)c2c(C)[nH]c3ccccc23)cc1OC (centres undefined)
    0, 0.58

Ordered by formula weight (rising): some entries from above
Screens in order: AID504770, Ba CapD inh
NCC(c1ccccc1)c1ccccc1
    -0.45, .
O=C(C1CCCN(S(=O)(=O)Cc2ccccc2)C1)N1CCc2ccccc21 (centres undefined)
    0.55, .
CC(OC(=O)c1cccc(S(=O)(=O)NCc2ccccc2)c1)C(=O)N1CCN(C(=O)c2ccco2)CC1 (centres undefined)
    -0.15, .

Profiles, quoted from the list. Screens in order: AID504770 | Ba CapD inh
`O=C(O)C1C2C=CC3(O2)C1C(=O)N1c2ccccc2C2OCCC2C13` (centres undefined) as listed: -0.4 | -0.12
`O=C(Cc1ccsc1)Nc1ccc(-n2cnnn2)cc1` as listed: -0.65 | .
`COc1ccccc1Cn1c(=O)c2cccnc2n(CC(=O)NCc2ccc(C)cc2)c1=O` as listed: 1.4 | 3.6
`NC(=O)c1ccccc1OCC(=O)N1CCCc2ccccc21` as listed: 0.6 | .
`COc1cc(OC)c(C2C(C#N)=C(N)Oc3n[nH]c(-c4ccc5c(c4)OCO5)c32)cc1OC` (centres undefined) as listed: . | 0.02

Carrying on.
Screens in order: AID504770, Ba CapD inh
CCCCc1nc2ccccc2n1CC(=O)NC1=NCCS1
    -0.55, .
CCOC(=O)c1sc2nc(NC(C)=O)sc2c1C
    -0.35, 11
CC(C)(C)c1ccc(S(=O)(=O)Nc2ccc(SCc3nc(OCC(F)(F)F)cc(OCC(F)(F)F)n3)cc2)cc1
    ., -0.49
C=CCN1C(=O)/C(=C\c2ccc(OCc3ccccc3C#N)cc2)C(=O)NC1=S
    -0.35, 32
CC(C)CCC(=O)O
    -0.15, .
Cc1ccc(C)n1NC(=O)c1ccc(Oc2ncnc3sccc23)cc1
    -0.3, .
COc1cccc(C2C(C(=O)OCC3CCCO3)=C(C)NC3=C2C(=O)CC(c2cccs2)C3)c1OC (centres undefined)
    ., 16
CCOc1cc(/C=c2\sc3nc4c(C)c(C)ccc4n3c2=O)cc(Cl)c1O
    0.1, -0.14
S=c1[nH]nc(Nc2cccc(Br)c2)s1
    -0.35, .
COc1cccc(Nc2ncc(C#N)c(N)n2)c1
    -0.3, -0.25
Cc1ccsc1C=Nc1ccc(O)cc1
    2.2, -0.86
NC(=O)C(Cc1ccccc1)NS(=O)(=O)c1cccs1 (centres undefined)
    ., 0.38
CCOc1cc(-n2cnnn2)c(OCC)cc1NC(=O)c1cn(-c2ccc(F)cc2)nn1
    0, 2
Cc1ccc(C)c(SCC(=O)OCC(=O)N2CCCc3ccccc32)c1
    0.25, -0.4
COC(=O)[C@@]1(C#N)C(c2cc(OC)cc(OC)c2)[C@@H](C#N)N2c3ccccc3C=C[C@@H]21 (some centres undefined)
    -0.75, 2.4
CCOC(=O)c1ccc(Nc2ccc(Br)cc2-c2nc3nc(-c4cc(C(C)(C)C)cc5c4CCC5(C)C)cn3[nH]c2=O)o1
    ., 1.2
CCCNCCc1ccccc1
    0, .
Cc1c(NC(=O)/C(C#N)=C/c2ccc(N(C)C)cc2)c(=O)n(-c2ccccc2)n1C
    ., -1.6
Cc1c2cnn(CC(=O)N3CCC4(CC3)OCCO4)c(=O)c2c(C)n1Cc1ccccc1F
    -0.2, 1.4
O=C1c2ccccc2C(=O)N1SSN1C(=O)c2ccccc2C1=O
    0.25, 0.06
CC(C)(CNC(=O)c1cc2ccccc2cc1O)N1CCOCC1
    0.55, .
CCOC(=O)N1CCC(Nc2nc(N3CCOCC3)nc(N3CCN(c4ccc(OC)cc4)CC3)n2)CC1
    ., 0.16
O=C(O)C1C2C=CC(C2)C1C(=O)N1CCN(C(c2ccccc2)c2ccccc2)CC1 (centres undefined)
    -0.2, 0.26
O=c1c2ccccc2cnn1-c1nc2ccccc2[nH]1
    -0.65, .
CCCNc1nc2ccccc2n2c(C)nnc12
    0.45, -0.15
CCc1ccc(-c2csc(N)n2)cc1
    1.1, 0.075
CCOc1cc(/C=C2\N=C(c3ccc(Cl)c([N+](=O)[O-])c3)OC2=O)ccc1OC(C)=O
    ., 0.06
O=C(CSc1nnc(-c2cccs2)n1CC1CCCO1)c1ccc2[nH]c(=O)oc2c1 (centres undefined)
    -2.5, .
CCOC(=O)c1sc2nc(C)nc(OCc3ccccc3Cl)c2c1C
    ., 0.46
CCOC(=O)Cc1nc(OCC(=O)c2ccc(F)cc2)cs1
    -0.15, 5.9
Cc1ccc(C)c(SCC(=O)O)c1
    -0.7, 0.08
O=C1CC(c2ccccc2C(F)(F)F)C2=C(CC(c3cccs3)CC2=O)N1 (centres undefined)
    -0.25, 0.15

Screening results: PubChem BioAssay, ICCB-Longwood Screening Facility, Harvard Medical School
